Screening results: PubChem BioAssay, National Center for Advancing Translational Sciences (NCATS)
D2 potentiator = positive allosteric modulators of human D2 dopamine receptor | DiscoveRx D2 beta-arrestin cells, luminescence, 90 min; 100% = 57 uM dopamine signal | potentiation, % (no concentration beside the values) | 360,000 compounds, 0.23% hits | AID 624464; active = potentiation of 50% or more; inconclusive = 30% to 50%; inactive = 30% or less;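 further: compound concentration not given in the record; tested on top of an EC20 dose of dopamine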
Target sequence (P14416 whole entry, looked up): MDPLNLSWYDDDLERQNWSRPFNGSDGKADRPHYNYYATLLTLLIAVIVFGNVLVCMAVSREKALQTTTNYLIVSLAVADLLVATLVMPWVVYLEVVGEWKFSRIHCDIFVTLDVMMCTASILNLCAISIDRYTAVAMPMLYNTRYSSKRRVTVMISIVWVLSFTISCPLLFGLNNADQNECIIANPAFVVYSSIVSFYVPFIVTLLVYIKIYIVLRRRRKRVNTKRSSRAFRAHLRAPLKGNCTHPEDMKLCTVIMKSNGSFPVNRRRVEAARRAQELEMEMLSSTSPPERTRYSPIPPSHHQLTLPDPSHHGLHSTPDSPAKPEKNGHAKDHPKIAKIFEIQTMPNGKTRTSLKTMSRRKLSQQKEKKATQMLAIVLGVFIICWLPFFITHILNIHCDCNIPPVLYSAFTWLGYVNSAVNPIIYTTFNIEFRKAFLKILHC
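PathHunter beta-arrestin assay in DiscoveRx D2 cells. Compounds were added with an EC20 of dopamine (50 nM final) for 90 min at 37 deg C. Luminescence was read 1 h after detection reagent, with 57 uM dopamine as the EC100 control.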
Six1-Eya2 inh = inhibitors of human Six1/Eya2 interaction; AlphaScreen GST-Six1/His-Eya2 binding, biochemical; stronger effect = lower value; control for the full effect not named in the record; activity change, % (no concentration beside the values); 360,000 compounds, 0.56% hits; AID 651725; in the data active = activity change below about -65%; inconclusive = about -30% to -65%; inactive = above about -30%; further: on the % scale 0 is the no-effect control and ±100 the full control effect
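Six1/Eya2 binding was read as AlphaScreen signal after compounds were pinned into GST-Six1 plus His-tagged Eya2 (5X stock 250/500 nM) in pH 8.0 Tris/NaCl/TCEP buffer, beads added, then incubated 1 h, 37 C, dark.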
TRPML1 agonist = activates the human TRPML1 channel; Q9GZU1; TRPML1-expressing cells, Ca2+ dye fluorescence, FDSS; host cell line not named in the record; reference of the full effect not given here; activation, % (concentration not given with the values); 410,000 compounds, 0.12% hits; AID 624414; in the data active = activation above about 50%; inconclusive = about 30% to 50%; inactive = below about 30%; further: 0% is about no effect; the text of the record puts the active cut at 80%
Target sequence (Q9GZU1 whole entry, looked up): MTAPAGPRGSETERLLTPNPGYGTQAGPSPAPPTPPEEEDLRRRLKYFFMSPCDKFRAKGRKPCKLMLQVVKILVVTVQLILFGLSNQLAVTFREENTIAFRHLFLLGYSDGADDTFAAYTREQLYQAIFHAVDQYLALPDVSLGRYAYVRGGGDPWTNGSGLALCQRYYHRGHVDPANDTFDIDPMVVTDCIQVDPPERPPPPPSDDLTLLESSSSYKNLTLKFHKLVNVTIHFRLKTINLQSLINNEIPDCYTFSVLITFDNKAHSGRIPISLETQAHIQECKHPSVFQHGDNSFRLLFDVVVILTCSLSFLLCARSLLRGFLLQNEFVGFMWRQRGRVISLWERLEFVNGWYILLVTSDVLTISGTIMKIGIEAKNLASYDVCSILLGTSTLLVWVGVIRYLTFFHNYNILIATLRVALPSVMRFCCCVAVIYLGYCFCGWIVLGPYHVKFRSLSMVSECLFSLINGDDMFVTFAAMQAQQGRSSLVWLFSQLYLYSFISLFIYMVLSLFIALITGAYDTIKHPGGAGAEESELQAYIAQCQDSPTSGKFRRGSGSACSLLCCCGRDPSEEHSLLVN
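Calcium fluorescence on an FDSS kinetic reader gave the read-out. Tet-induced TRPML1-DL cells were plated overnight, dye-loaded (Ca8 with quencher, 45-90 min, room temperature, dark), then read 110 s after compound addition, and again 110 s after 4uM final 54-4 (EC80).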
CtBP-E1A blk = blocks the CtBP interaction with E1A. AlphaScreen GST-E1A/His-CtBP binding, 1536-well; stronger effect = lower value; control for the full effect not named in the record. 340,000 compounds, 0.49% hits. activity change, % (test concentration not listed); in the data active means activity change below about -65%; inconclusive means about -30% to -65%; inactive means above about -30%; further: on the % scale 0 is the no-effect control and ±100 the full control effect
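Steps: dispense buffer (Tris pH 8.0, NaCl 300 mM, TCEP 1 mM, BSA, Tween 20); add 5X protein mix (GST-E1A, His-CtBP, 125 nM each); pin 23 nL compound; 2 h at 37 °C, dark; add 5X beads (50 ug/mL); 1 h; read.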
TRPML1 inh = inhibitors of human TRPML1 channel; Q9GZU1; TRPML1-inducible cells, Ca2+ dye fluorescence, FDSS; stronger effect = lower value; inhibition of EC80 agonist-evoked calcium signal; AID 624415; 390,000 compounds, 0.02% hits; activity change, negative = inhibition, % (test concentration not listed); in the data active means activity change below about -50%; inconclusive means about -30% to -50%; inactive means above about -30%;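 further: stimulus is agonist 54-4 at its EC80 concentration; on the % scale 0 is the no-effect control and ±100 the full control effect; compound concentration not given in the record; the text of the record puts the active cut at -80%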
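Calcium fluorescence in TRPML1-DL cells induced overnight with Tet: a 110 s read after compound pin addition, then a 110 s antagonist read after challenge with 54-4 at 4 uM final (EC80).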
TRPV1 PAM = enhances activation of the human vanilloid receptor TRPV1; 320,000 compounds, 0.02% hits; TRPV1-expressing cells, Fluo-8 calcium influx, capsaicin EC20 potentiation; host cell line not named in the record; control for the full effect not named in the record; potentiation, % at 8.33 µM; Q8NER1; AID 540277; active means potentiation above 80%; inconclusive means 30% to 80%; inactive means below 30%; further: 0% is about no effect
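Cells expressing TRPV1 were dye-loaded with Fluo-8 and read kinetically: 10 s baseline, 3 min after compound (agonist portion), then 2 min after EC20 capsaicin (allosteric enhancer portion). Calcium-bound dye fluorescence at 480/520 nm.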
* = called active by the depositor; ? = inconclusive; nt = not tested or not shown; & = joins results of further samples. An unsorted share of the library. Share with any hit: about 0.95%.

SMILES | D2 potentiator | Six1-Eya2 inh | TRPML1 agonist | CtBP-E1A blk | TRPML1 inh | TRPV1 PAM
CC(C)C[C@H](NC(=O)C1CC(=O)N(c2ccc3c(c2)OCO3)C1)C(=O)NC1CCCC1 (stereo partly specified) | -10.8 | -8.6 | -0.7 | 0.0 | 16.1 | 5.1
COc1cc(CN2CCNC(=O)C2CC(=O)N(C)Cc2cccnc2)cc(OC)c1 (stereo unspecified) | -9.7 | -8.5 | 0.7 | nt | 28.9 | 6.9
CCn1c(NCc2cccs2)nc2ccccc21 | -6.0 | 8.2 | 1.3 | 2.6 | 15.6 | -1.7
O=C(CCS(=O)(=O)c1ccc(F)cc1)Nc1nc(-c2ccccn2)cs1 | -14.7 | -76.3* | -1.2 | nt | -13.1 | 11.9
Cc1ccc(N2CC(C(=O)Nc3ccccc3C(=O)NC3CCCCC3)CC2=O)cc1C (stereo unspecified) | 24.2 | -7.7 | 0.7 | -7.3 | 9.7 | nt
CC1=C(C(=O)N(C(C)C)C(C)C)CC(CC(=O)NCCCCc2ccccc2)C(=O)N1Cc1ccc(C(C)(C)C)cc1 (stereo unspecified) | -7.8 | 2.4 | 1.8 | -26.2 | 74.4 | nt
C=CCOc1c(CCC)cc(CCC)cc1C(N)=O | -1.7 | 0.0 | 3.5 | 3.8 | -10.9 | -7.7
COc1ccccc1NC(=O)N(C)C[C@H]1OCc2cn(nn2)CCCC(=O)N([C@@H](C)CO)C[C@@H]1C | -3.8 | 8.0 | -0.3 | -1.3 | -4.9 | nt
COc1ccc(Br)cc1/C=N/Nc1cccc(C(=O)O)c1 | 14.9 | -9.2 | 4.1 | 2.4 | 5.7 | 0.8
CCc1ccc(NC(=O)CSc2nc3n[nH]c(C)c3c(=N)n2-c2cccc(OC)c2)cc1 | -2.4 | ? | 1.3 | ? | 5.0 | 9.8
O=C(CCNS(=O)(=O)c1cccc2nonc12)NC1CCCCCC1 | -14.7 | 6.0 | -0.6 | 5.2 | 50.9 | 6.7
NNC(=O)CN(CCc1ccccc1)S(=O)(=O)c1ccc(Cl)cc1 | 7.2 | 8.0 | 0.1 | -21.0 | 23.2 | 1.2
CSc1ncnc2c1ncn2CCCN[C@H](C)c1cccc2ccccc12 | -6.7 | -4.8 | -0.1 | -14.2 | 8.1 | nt
CCSc1nnc(NC(=O)CSc2nccn2-c2cccc(C)c2)s1 | 5.3 | -4.2 | 2.2 | 1.5 | 4.5 | ?
c1ccc(-c2c[nH]c3[n+]2CCCCC3)cc1 | -5.5 | -6.5 | -0.4 | 8.0 | 27.0 | -21.7
O=C(C1CCN(c2nnc(-n3cccc3)s2)CC1)N1CCN(Cc2ccc3c(c2)OCO3)CC1 | -3.5 | -3.7 | 0.6 | -10.3 | -8.9 | -0.5
COc1ccc(NC(=O)CCC(=O)N(Cc2ccc(OC)c(OC)c2)c2nccs2)cc1 | 3.2 | 6.6 | 1.6 | 1.7 | 59.6 | -19.8
Cc1cc(C)cc(NC(=O)Cn2ncn3c(cc4ccccc43)c2=O)c1 | 5.6 | 0.2 | 0.9 | 0.7 | 2.5 | -6.8
COC(=O)C1=C(C(=O)OC)[C@@H]2N(Cc3ccccc3)c3ccccc3[C@@]23C[C@@H](C(=O)OC)N=C3N1 | -3.1 | 3.4 | 0.8 | 0.5 | -7.8 | -33.2
COc1ccc(NS(=O)(=O)c2cccc(C(=O)NN=Cc3ccc(OC)c(O)c3)c2)cc1 | -10.6 | -16.2 | -0.5 | -3.6 | -17.5 | nt

Reprinted from the part before: five compounds, followed by the next part.
SMILES | D2 potentiator | Six1-Eya2 inh | TRPML1 agonist | CtBP-E1A blk | TRPML1 inh | TRPV1 PAM
O=C(C1CCN(c2nnc(-n3cccc3)s2)CC1)N1CCN(Cc2ccc3c(c2)OCO3)CC1 | -3.5 | -3.7 | 0.6 | -10.3 | -8.9 | -0.5
COc1ccc(NC(=O)CCC(=O)N(Cc2ccc(OC)c(OC)c2)c2nccs2)cc1 | 3.2 | 6.6 | 1.6 | 1.7 | 59.6 | -19.8
Cc1cc(C)cc(NC(=O)Cn2ncn3c(cc4ccccc43)c2=O)c1 | 5.6 | 0.2 | 0.9 | 0.7 | 2.5 | -6.8
COC(=O)C1=C(C(=O)OC)[C@@H]2N(Cc3ccccc3)c3ccccc3[C@@]23C[C@@H](C(=O)OC)N=C3N1 | -3.1 | 3.4 | 0.8 | 0.5 | -7.8 | -33.2
COc1ccc(NS(=O)(=O)c2cccc(C(=O)NN=Cc3ccc(OC)c(O)c3)c2)cc1 | -10.6 | -16.2 | -0.5 | -3.6 | -17.5 | nt
COc1cccc(NC(=S)NC(=O)/C=C/c2ccco2)c1 | -20.7 | -25.6 | 0.5 | -0.3 | 1.3 | -3.9
CCn1c(-c2ccc(C(C)(C)C)cc2)n[nH]c1=S | -13.9 | -1.3 | -0.2 | 2.1 | -1.4 | -27.6
c1cncc(-c2nc(NCc3ccco3)c3ccccc3n2)c1 | -5.8 | -16.2 | -0.7 | -18.5 | -4.5 | 14.8
CC(CCCCCCCCC(=O)O)N(CCO)C(=O)OC(C)(C)C (stereo unspecified) | -5.8 | -10.0 | -0.4 | 8.0 | 2.3 | -4.1
O=C(CSc1nc2ccccc2o1)Nc1cc(C(F)(F)F)ccc1N1CCOCC1 | -2.4 | 6.3 | 1.8 | 3.3 | 9.6 | -2.3
COc1ccc2nc(C)cc(Nc3ccc(N4CCOCC4)cc3)c2c1 | -21.6 | ? | -0.1 | -1.3 | -9.4 | 4.0
Cc1ccc(NC(=O)COC(=O)C2CC2C)c(S(=O)(=O)N2CCCCC2)c1 (stereo unspecified) | -17.1 | -3.3 | -0.5 | -2.6 | 9.4 | 3.9
CCNC(=O)Cn1cc(C#N)c2ccccc21 | -1.7 | 11.8 | 0.0 | -1.6 | -7.3 | -0.5
COCC1CCN(C(=O)c2ccc3oc(Cc4ccc(Cl)cc4)nc3c2)C1 (stereo unspecified) | -1.6 | 6.0 | -0.1 | -3.5 | 32.4 | nt
O=C(Nc1cc([N+](=O)[O-])c2[nH]c(=O)c3ccccc3c2c1)C(F)(F)F | 2.6 | -16.8 | 0.6 | -13.3 | 16.7 | nt
CCNC(=S)SCCOc1ccc(C)cc1 | -4.1 | 11.7 | 1.5 | 0.0 | 7.8 | 4.9
COC(=O)[C@@H](Cc1c[nH]c2ccccc12)NC(=O)CCC(=O)c1ccc(F)cc1 | -9.6 | -0.5 | -0.3 | -13.9 | -19.0 | 3.5
Cn1c(N)c(N2CCN(c3ccccc3)CC2)c(=O)[nH]c1=O | -3.7 | -9.8 | 0.5 | -11.2 | 8.6 | 8.9
O=C(CCNc1cc(Cl)cc(Cl)c1)c1ccco1 | -16.1 | 3.9 | 0.8 | 7.2 | 2.7 | -0.5
COC(=O)c1c(NC(=O)c2ccc(C)c(S(=O)(=O)Nc3ccccc3C)c2)sc2c1CCCC2 | -1.0 | 2.8 | 2.5 | 6.4 | -9.2 | 0.4
COc1ccc(S(=O)(=O)N(C)C[C@H]2Oc3cc(Br)ccc3S(=O)(=O)N([C@H](C)CO)C[C@H]2C)cc1 | -15.8 | 16.5 | -0.3 | 2.0 | -11.8 | nt
CCOC(=O)N/N=C1\CCS(=O)(=O)c2ccc(Cl)cc21 | -26.6 | 5.1 | -0.5 | nt | 16.0 | ?
COc1cccc(NC(=O)CN2C(=O)COc3ccc(C)cc32)c1 | -6.4 | 1.1 | 0.7 | 0.3 | 9.7 | -9.0
C/C(CC(C)(C)C1CCCCC1)=N\NC(N)=S | -18.9 | -14.3 | -0.1 | -10.6 | 7.4 | -21.6
NC(=O)c1ccsc1NC(=O)CSc1nnc(NC2CC2)s1 | -12.6 | -1.9 | -0.3 | -0.6 | -3.0 | nt
O=C(NCC(O)c1ccccc1)c1ccc(Cl)c(S(=O)(=O)N2CCCCC2)c1 (stereo unspecified) | -10.3 | 7.3 | -0.1 | 3.4 | 5.1 | -7.1
NC(N)=NC1=NC(=O)C(Cc2ccccc2)S1 (stereo unspecified) | -6.6 | 0.3 | 0.8 | 4.3 | 18.1 | -5.1
COc1ccc(N2CCN(c3nc(Nc4ccc(C)c(F)c4)nc(N4CCCC4)n3)CC2)cc1 | -18.7 | -8.3 | -1.1 | -3.5 | -14.8 | -0.6
Cc1nc(C(C)NC(=O)CCc2nnc(CCCc3ccccc3)o2)c(C)s1 (stereo unspecified) | -6.6 | -0.3 | -0.3 | 3.4 | -13.9 | 14.4
O=C(NCCCN1CCN(Cc2ccccc2Cl)CC1)Nc1ccccc1 | -27.3 | -2.8 | 2.3 | -1.0 | 3.3 | 5.0
Cc1ccccc1Nc1nn2c(=O)c3ccc(C(=O)N4CCCC(C)C4)cc3nc2s1 (stereo unspecified) | -4.5 | -0.3 | -0.6&1.2 | 2.5 | 7.8&-20.9 | nt
Cc1ccc2oc(-c3ccc(NC(=O)c4ccc5c(c4)OCO5)cc3)nc2c1 | -6.6 | 5.5 | 0.0 | 10.7 | -10.8 | 4.7
Cc1ccc(C)c(S(=O)(=O)N(C)c2ccc(OC(=O)CN3C(=O)NC4(CCCC4)C3=O)cc2)c1 | 1.3 | 2.9 | 0.0 | 0.0 | 9.7 | nt
Cc1nnc(-c2cnn(C)c2N)n1CCCN(C)C | -0.3 | -5.0 | -0.4 | 5.9 | 3.9 | 3.2
CC(C)OC(=O)COc1ccc(-c2ccccc2)cc1 | -23.1 | 53.6 | 2.6 | 48.8 | -9.4 | 16.4
O=C(O)c1ccc2nc(-c3ccccc3)sc2c1 | -10.4 | 3.1 | 1.0 | -4.4 | ? | -4.0
O=C(CCc1ccc(S(=O)(=O)N2CCOCC2)cc1)Nc1cc(Cl)ccc1N1CCOCC1 | 11.8 | 3.3 | 0.6 | -1.2 | -8.3 | 5.2
N#Cc1c(Nc2ccccc2)sc(C(=O)c2ccccc2)c1N | -13.5 | -2.9 | -0.3 | -13.6 | -10.3 | -7.8
Cc1c(NC(=O)COC(=O)CCC(=O)c2ccc(Cl)cc2)c(=O)n(-c2ccccc2)n1C | -3.2 | 1.4 | -0.1 | nt | -4.1 | 5.3
CCN(CC)c1ccc(NC(=O)CSc2n[nH]c(-c3ccco3)n2)cc1 | -8.9 | -22.4 | 1.8 | 7.2 | 20.2 | -17.2
CCc1ccc(Nc2nnc(SCC(=O)Nc3sccc3C(N)=O)s2)cc1 | 4.6 | -17.4 | 1.2 | -9.3 | -7.1 | -1.2
CCS(=O)(=O)Nc1cccc(C2=NN(C(=O)c3ccco3)C(c3ccco3)C2)c1 (stereo unspecified) | 9.3 | 12.9 | 0.9 | -2.5 | 21.0 | -11.5
O=C(Nc1ccc(N2CCN(C(=O)c3ccco3)CC2)cc1)c1ccccc1 | -3.6 | -4.1 | 0.4 | -6.0 | -9.3 | 2.8
COc1ccc(CNC(=O)C/C(C)=N/NC(=O)C23CC4CC(CC(C4)C2)C3)cc1 | -11.5 | 0.2 | 1.1 | nt | 33.6 | 5.8
O=C(NCc1cccnc1)C(=O)NC1CCCCC1 | -2.2 | 7.3 | -0.5 | nt | 31.4 | -12.3
